Screens deposited in PubChem by Broad Institute.
Calb FLC = affects C. albicans growth with fluconazole. C. albicans CaCi-2 (fluconazole-resistant clinical isolate) + fluconazole, Alamar Blue growth, 48 h. growth inhibition, % (no concentration beside the values). 300,000 tested, 0.57% active. AID 1979;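 active = most replicates above 75%; inconclusive = exactly half above 75%; inactive = most below 75%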;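 note: all wells also contain fluconazole at 8 µg/ml as a sub-toxic cotreatment; 0% = median of DMSO wells and 100% = median of geldanamycin control wells; wells of about 8 µL received 7.5 nL stock; the first replicate is given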
ALR H2O2 inh = blocks human ALR sulfhydryl oxidase activity | P55789 | purified ALR, DTT oxidation, H2O2 HRP-luminol luminescence | inhibition, % (concentration not given with the values) | 290,000 tested, 3.8% active | AID 485317;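 active = mean and each replicate at 75% or more; inconclusive = only one of the two met; inactive = neither met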;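 note: stock transfer was 7.5 nL into about 7.5 µL; 0% = neutral wells and 100% = wells with inactivated enzyme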
Target sequence (P55789 whole entry, looked up): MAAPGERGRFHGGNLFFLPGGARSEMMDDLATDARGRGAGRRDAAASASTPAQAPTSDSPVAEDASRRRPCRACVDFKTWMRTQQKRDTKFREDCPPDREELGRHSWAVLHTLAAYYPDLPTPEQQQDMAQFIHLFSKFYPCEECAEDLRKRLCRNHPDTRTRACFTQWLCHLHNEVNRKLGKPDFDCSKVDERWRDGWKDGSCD
rRNA inh HTS = selective bacterial rRNA inhibition in E. coli; E. coli WT GFP vs humanized-ribosome RFP mutants, fluorescence, 24 h; hits give low values; DMSO median 0, no signal -100; GFP signal change (wild-type ribosome), % (test concentration not listed); 350,000 tested, 1.6% active;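 active = significant combined selectivity score with lowered wild-type GFP, culture density cut under 30%, mutant RFP and density less affected; inactive = any of these conditions unmet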; note: one replicate is shown; some compounds called inactive have numbers as strong as hits
AF4-AF9 inh = inhibitors of human MLL-AF4/AF9 interaction; P42568; AlphaScreen, biotin-AF4 peptide binding to FLAG-AF9; inhibition, % at 10 µM; 350,000 tested, 0.47% active; AID 651704;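 active = every replicate reaching a set inhibition limit, whatever the replicate mean, cut at about 25% in these data; inconclusive = mean inhibition reaches that limit but some replicates miss it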;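 note: 0% = plate neutral control median and 100% = total signal loss; the record names both 10 and 1 µM as test concentration; the first replicate is given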
Target sequence (P42568 whole entry, looked up): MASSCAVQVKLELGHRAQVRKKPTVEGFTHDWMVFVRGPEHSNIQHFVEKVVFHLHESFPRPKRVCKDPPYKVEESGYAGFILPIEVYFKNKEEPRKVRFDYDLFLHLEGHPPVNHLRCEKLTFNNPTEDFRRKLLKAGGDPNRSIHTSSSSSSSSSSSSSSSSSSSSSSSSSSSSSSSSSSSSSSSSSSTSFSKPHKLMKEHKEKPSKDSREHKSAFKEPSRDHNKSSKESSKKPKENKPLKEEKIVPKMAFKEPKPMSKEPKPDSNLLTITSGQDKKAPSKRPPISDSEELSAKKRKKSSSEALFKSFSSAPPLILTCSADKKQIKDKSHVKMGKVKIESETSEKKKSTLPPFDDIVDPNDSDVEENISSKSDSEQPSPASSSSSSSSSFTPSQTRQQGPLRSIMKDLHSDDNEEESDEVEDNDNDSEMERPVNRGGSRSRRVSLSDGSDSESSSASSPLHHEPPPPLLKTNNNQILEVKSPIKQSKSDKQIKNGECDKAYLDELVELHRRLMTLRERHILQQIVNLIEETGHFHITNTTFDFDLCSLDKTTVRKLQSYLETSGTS
Beta apoptosis = beta cell apoptosis inhibition | AID 435005 | 300,000 tested, 0.8% active | INS-1E cytokine-induced death, ATP luminescence, 48 h; percent of positive-control rescue, neutral wells zero | protection from apoptosis, % (concentration not given with the values);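 active = all replicates at 75% or more, or half of them and the mean; inconclusive = half reach 75% but not the mean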;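 note: 0% = cytokine-treated negative control wells and 100% = positive control rescue; higher means more ATP so stronger rescue from cytokine killing; wells of about 40 µL received 100 nL stock; the first replicate is given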
FGF22 binding = binders of recombinant human FGF22 by thermal shift. Q9HCT0. calls only at 9.99 µM. 340,000 tested, 1.5% active. SYPRO orange fluorescence; percent of sucrose octasulfate shift, DMSO zero;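 active = melting point raised past a set limit in the mean and every replicate; inconclusive = no clear call; three in four hits are not shown here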
Target sequence (Q9HCT0 whole entry, looked up): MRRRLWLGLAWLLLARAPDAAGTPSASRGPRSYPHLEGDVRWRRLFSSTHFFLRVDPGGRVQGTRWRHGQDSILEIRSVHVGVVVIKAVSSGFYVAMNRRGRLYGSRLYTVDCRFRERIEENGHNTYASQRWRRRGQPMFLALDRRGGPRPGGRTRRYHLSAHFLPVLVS
RanGTP-Impb inh = inhibitors of RanGTP-importin-beta interaction, primary screen, biochemical, FRET, CFP-Ran, YFP-importin-beta, homogeneous; cell-free CFP-Ran/YFP-importin-beta FRET ratio; 300,000 tested, 1.1% active; AID 2216; inhibition, % (concentration not given with the values);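 active = most replicates above 15%; inconclusive = exactly half above 15%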;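 note: 0% = DMSO wells and 100% = Ran loaded with GDP instead of GTP; wells of about 40 µL received 100 nL stock; the first replicate is given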
T cruzi repl = T. cruzi replication inhibition | 300,000 tested, 1.4% active | T. cruzi beta-gal in NIH3T3, luminescence, 90 h | inhibition, % (concentration not given with the values);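 active = mean inhibition across valid replicates above about 55%, limit read from the data; inconclusive = mean below that limit but half or more replicates reach it; inactive = mean below it, under half of replicates reach it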;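 note: signal also drops with host cell toxicity which is not excluded here; 0% = plate median of DMSO wells and 100% = zero luminescence signal; higher percent means less beta-gal luminescence so fewer parasites; stock transfer was 50 nL into about 50 µL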
rRNA inh HTS OD600 = second read-out of rRNA inh HTS, no call of its own (marks repeat the call); OD600 change, %; measured here: OD600 growth;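 optical density of the mix in the first replicate; 0 = DMSO median and -100 = no signal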
rRNA inh HTS RFP = further read-out of rRNA inh HTS, marked with its call; RFP signal change, %; measured here: RFP humanized mutant strains;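 first replicate; 0 = DMSO median and -100 = no signal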
Active calls of the source: *; i = inactive; ? = inconclusive; nt = not tested or not shown.

SMILES	Calb FLC	ALR H2O2 inh	rRNA inh HTS	rRNA inh HTS OD600	rRNA inh HTS RFP	AF4-AF9 inh	Beta apoptosis	FGF22 binding	RanGTP-Impb inh	T cruzi repl
O=C(Cn1c(=O)n(CCCC(=O)NC2CCCC2)c(=O)c2ccccc21)NCCC1=CCCCC1	1	-12	nt	nt	nt	nt	16	nt	-3.2	-11
Oc1cc(-n2cccn2)c(O)cc1-n1cccn1	-5	54	10	18	-0.2	1.1	-4	i	7.9	53
COc1ccc(S(=O)(=O)N2CCC(C(=O)NCCc3ccccc3)CC2)cc1	24	-8	-1	8	-4.4	-6.7	-3	i	-0.9	3
COc1cc(C(=O)N[C@@H](C)C(=O)N2CCC3(CC2)NCCc2[nH]cnc23)cc(OC)c1OC	1	-11	20	18	-0.5	-1.1	1	i	3.0	-22
COc1cc(OC)cc(C(=O)NCC2CCCN(C(=O)c3oc(C)cc3C)C2)c1 (stereo not drawn)	2	-1	4	-3	1.1	3.5	-3	i	0.2	-2
COc1ccc(/C=N/NC(=O)CC(=O)NCc2cccnc2)c(OC)c1	25	0	5	8	-1.0	0.1	3	i	4.0	-8
Cc1cccn2c(/C=N/OCc3cccc(F)c3)c(-c3ccc(Cl)cc3)nc12	1	nt	nt	nt	nt	nt	5	nt	-0.6	22
COc1cc(NC(=O)CN(C)S(=O)(=O)c2ccc(-c3ccc(=O)[nH]n3)s2)cc(OC)c1	9	-6	-2	-4	-1.9	-2.2	9	i	1.8	5
Cc1ccc(C(=O)NNC(=O)OC(C)(C)C)c(Cl)c1	-1	-20	nt	nt	nt	nt	0	nt	?	-9
Cc1occc1-c1nnc(SCC(=O)NCCc2ccccc2)n1C(C)c1ccccc1 (stereo not drawn)	-4	-21	nt	nt	nt	nt	-2	nt	0.9	10
CCOC(=O)c1cccnc1SCC(=O)NC(C)CC (stereo not drawn)	-1	34	nt	nt	nt	nt	-1	nt	?	2
FC(F)(F)c1cccc(Cn2nnnc2-c2cccc(C(F)(F)F)c2)c1	2	-3	nt	nt	nt	nt	10	nt	3.3	-1
C#CCOCCOCCOCCNc1nc(N2CCN(C(=O)[C@H]([C@@H](C)CC)n3cc([C@@H](N)CO)nn3)CC2)nc(N2CCN(C(=O)[C@H](CCCCN)n3cc([C@@H](N)CC(C)C)nn3)CC2)n1	-8	-4	3	1	4.0	15	-4	i	-0.1	-17
CC(C)(C)c1nnc2sc(SCCN3C(=O)c4ccccc4C3=O)nn2c1=O	-3	99*	nt	nt	nt	nt	-2	nt	1.4	-1
COc1ccc(C)cc1NC(=O)CSc1cccc[n+]1[O-]	nt	-22	-4	-34	-8.8	-1.4	-2	i	nt	nt
CC1(C)CC(=O)C=C(/C=C/c2ccccc2)C1	nt	-1	4	11	-2.2	-0.1	2	i	nt	nt
Cc1cc(=O)oc(C)c1C(=O)NCC1CCCO1 (stereo not drawn)	-3	-7	nt	nt	nt	nt	-6	nt	4.7	-15
CCN(CC)S(=O)(=O)c1ccc(N2CCCC2)c(NS(=O)(=O)c2ccc(OC)cc2)c1	12	12	nt	nt	nt	nt	3	nt	-10	15
Cc1ccc(S[C@@H](CCN2CC[C@H](NC(=O)OCc3ccccc3)CCC2=O)c2ccccc2)cc1	-4	24	4	-1	-1.7	-3.0	-2	i	1.2	38
Cc1ccc(OCC(=O)N2CCN(C(=O)c3ccco3)CC2)cc1	6	-4	5	9	-6.8	0.3	-1	i	1.5	-4
COc1ccc(C(=O)N2CCCCCC2)cc1S(=O)(=O)N1CCOCC1	-3	4	6	9	0.3	9.8	2	i	0.7	-4
O=C(NCc1ccco1)c1ccccc1-c1nc(-c2ccc(F)cc2)no1	-11	2	3	5	4.3	nt	-7	i	0.8	nt
CC(C)(O)C#Cc1ccc(C(=O)N2CCN(C(=O)c3ccco3)CC2)cc1	3	-9	nt	nt	nt	nt	-2	nt	-3.4	-2
Cc1cc(NC(=O)CCC2COc3ccccc3O2)no1 (stereo not drawn)	-6	-13	nt	nt	nt	nt	0	nt	2.0	1
COc1ccc(CCN2CC(C(=O)N3CCN(C(C)=O)CC3)CCC2=O)cc1 (stereo not drawn)	8	-12	4	15	1.3	-1.5	-1	i	0.9	-16
CCOC(=O)C1=C(CSc2n[nH]c(N)n2)NC(=O)NC1C (stereo not drawn)	-6	-14	-1	5	-1.9	nt	-5	nt	1.3	0
Cc1ccc(S(=O)(=O)NCC(=O)NCCc2c[nH]c3ccccc23)cc1C	23	-16	0	-23	3.4	2.5	-9	i	6.9	-7
O=C(CCC(=O)N(CC(=O)NC1CCCC1)C1CCCCC1)Nc1ccccn1	-1	nt	19	6	-0.7	-3.2	-6	i	5.4	-13
CC(CO)NCC12CC3CC(CC(C3)C1)C2 (stereo not drawn)	?	nt	4	-2	-6.7	-0.8	-9	i	?	-2
CN1CCN(S(=O)(=O)c2ccc3c(c2)NC(=O)C2CCCN32)CC1 (stereo not drawn)	18	nt	nt	nt	nt	nt	-5	nt	-1.8	-5
Cc1sc2nc(CSc3n[nH]c(N)n3)[nH]c(=O)c2c1C	40	12	5	3	0.1	-3.7	-2	i	-3.0	-7
CC1CCC2(CC1)NC(=O)N(CC(=O)Nc1cccc(S(=O)(=O)N3CCCC3)c1)C2=O (stereo not drawn)	nt	0	nt	nt	nt	-0.2	0	i	nt	nt
COC(=O)C(O)(CC(=O)Nc1cccc(SC)c1)C(F)(F)F (stereo not drawn)	-5	-12	7	6	4.8	nt	2	nt	3.7	-3
CCS(=O)(=O)N1CCCC(C(=O)N2CCc3ccccc3C2)C1 (stereo not drawn)	5	-9	nt	nt	nt	nt	-2	nt	0.7	-1
Cc1cc(C(=O)OCC(=O)N2CC(=O)Nc3ccccc32)c(C)n1-c1ccc(F)cc1	0	2	nt	nt	nt	nt	-1	nt	1.3	7
NCCCC[C@@H](C(=O)NCCCCCCCCCCC(=O)N1CCNCC1)n1cc(CCO)nn1	8	nt	1	1	1.0	3.8	-18	i	?	-22
Cc1ccccc1OCC(=O)Nc1sc(C(=O)Nc2cccc(C)c2C)c(C)c1C#N	2	-3	10	14	16	-1.4	1	i	1.5	-22
Cc1ccc2cc3cc(C(=O)NCCCN4CCCC4)oc3nc2c1	18	3	-4	0	4.0	2.0	-4	i	4.1	22
CSc1ccc(S(=O)(=O)N2CCC(C(=O)NCCN3CCOCC3)CC2)cc1	2	47	6	8	-0.1	1.1	1	i	-3.3	-1
CO/N=C(/CS(=O)(=O)c1ccc(C)cc1)c1ccc(OC)cc1	3	-10	nt	nt	nt	nt	-6	nt	-0.9	-4
CCOC(=O)N1CCN(Cc2nc3ccc([N+](=O)[O-])cc3c(=O)n2-c2cccc(OC)c2)CC1	-15	5	1	-1	-2.7	-1.6	5	i	-2.1	25
Cc1cccc(C)c1NC(=S)N/N=C/c1ccc(C(=O)O)cc1	-1	10	3	4	1.9	5.1	-2	i	0.6	1
Nc1nnc(CC(=O)N/N=C/c2ccc([N+](=O)[O-])cc2)s1	-1	57	10	1	-9.1	1.8	-4	i	-4.7	-4
Cc1nn(-c2ccccc2)c(Cl)c1C(=O)N1CCN(C)CC1	1	3	12	16	4.2	-0.6	2	i	nt	-4
CCNc1nnc(SCC(=O)N2c3ccccc3NC(=O)CC2C)s1 (stereo not drawn)	nt	nt	4	6	-0.8	3.8	-5	i	nt	nt
COC(=O)c1c(SCC(=O)NC2CCCCC2)[nH]c2ccccc2c1=O	-11	6	1	2	6.1	-10	-4	i	?	-9
CCn1c(C)cc(/C=C2/NC(=O)N(Cc3ccccc3F)C2=O)c1C	-13	4	6	9	-2.5	-1.9	0	i	?	9
Cc1noc(C)c1CSCC(=O)Nc1nc2c(F)cc(F)cc2s1	nt	37	1	8	-4.4	-0.3	4	i	nt	nt
CC1CCCC(C)N1C(=S)SCC(=O)O (stereo not drawn)	-10	-6	12	4	4.1	-5.1	-4	i	0.2	-11
Cc1ccc(S(=O)(=O)Nc2nonc2C)cc1	?	-10	nt	nt	nt	nt	nt	nt	-2.2	-15
CC(c1ccc(F)cc1)n1cc(S(=O)(=O)N2CCCC2)ccc1=O (stereo not drawn)	nt	-1	1	5	-1.9	-1.4	-4	i	nt	nt
O=C1CC(c2ccccc2)Cc2nc(NCc3ccco3)ncc21 (stereo not drawn)	12	-8	nt	nt	nt	nt	2	nt	9.1	-3
CN(C(=O)Cn1cnc2ccccc2c1=O)C1CCS(=O)(=O)C1 (stereo not drawn)	5	nt	-1	1	-1.3	-2.8	3	i	3.8	-2
CCCCCCCCCCCCC(=O)CCCCC(=O)O	-4	1	-1	-6	-1.8	-0.7	-6	i	1.4	-7
CC1CN(C(=S)Nc2ccc(Br)cc2)CC(C)O1 (stereo not drawn)	-19	-5	-7	-9	-1.2	-8.0	nt	i	-0.3	-11
CCN(CC)S(=O)(=O)c1cc(NC(=O)CSc2nnc(N)s2)ccc1C	nt	39	nt	nt	nt	1.1	-4	i	nt	nt
O=C(NCCCN1CCOCC1)[C@@H]1CSC2c3ccccc3C(=O)N21 (stereo partly drawn)	-1	0	nt	nt	nt	nt	-5	nt	-0.1	-12
O=C(NCC(c1cccnc1)N1CCOCC1)c1ccc2c(c1)OCO2 (stereo not drawn)	-9	nt	nt	nt	nt	nt	-5	nt	-0.2	-4
CC(=C/c1ccccc1)/C=N/NC(=O)c1ccccn1	1	-8	11	4	0.9	3.9	nt	i	1.5	-12
O=C(COc1ccc(Br)cc1Cl)Nn1cnnc1	-8	-2	5	4	-2.9	-1.9	-4	i	3.8	-10
Next structures:
SMILES	Calb FLC	ALR H2O2 inh	rRNA inh HTS	rRNA inh HTS OD600	rRNA inh HTS RFP	AF4-AF9 inh	Beta apoptosis	FGF22 binding	RanGTP-Impb inh	T cruzi repl
CCN(CC)C(=O)Cn1cc(S(=O)(=O)CC(=O)N2CCOCC2)c2ccccc21	-15	nt	4	8	-0.8	-2.1	-6	i	0.3	-1
C/C(=N\NC(=O)Cc1ccc(Cl)cc1)c1ccc(F)cc1	-24	-16	0	6	5.4	3.5	-2	i	0.6	-16
COc1ccc(NC(=O)CCNS(=O)(=O)c2cc(Br)cnc2N)c(OC)c1	-7	-6	-16	-18	-2.5	6.2	-5	i	0.7	-6
O=C(CCCCCN1C(=O)c2ccccc2C1=O)Nc1ccccc1	-8	-4	nt	nt	nt	nt	3	nt	1.9	11
CCCCN(CC)Cc1ccc(CNC(=O)Nc2ccc(Cl)cc2)o1	0	nt	6	-1	6.2	-0.1	-1	nt	3.4	18
Cn1cc(CN2CCC(O)CC2)c(-c2ccc(Oc3ccccc3)cc2)n1	6	-4	0	1	1.4	2.9	-5	i	0.1	8
N#CCOC(=O)C1c2ccccc2Oc2ccccc21	-1	-9	-1	3	-2.1	-7.1	-8	i	-0.8	-1
O=C1CC(c2ccco2)CC2=C1C1c3ccccc3C(=O)N1c1ccccc1N2 (stereo not drawn)	-3	-12	nt	nt	nt	nt	-16	nt	1.1	-5
Cc1cc(C)n(C(=O)/C=C/c2cccs2)n1	1	nt	-2	5	-4.8	-0.6	4	i	1.4	-15

This is a subset; count on the stated rates, not on these rows.
